NPYLR7 ag – activates Aedes aegypti NPYLR7 receptor. HEK293T NPYLR7/Galpha15, GCaMP6s calcium fluorescence. 0.15% of 270,000 active. activation, % at 10 µM; in the data active = activation above about 40%;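 note: 0% = vehicle and 100% = reference agonist at the receptor; some compounds past the cut are filed as inactive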
NPYLR7 ag max-min – recorded beside NPYLR7 ag, whose call it bears; activation, %; measured here: Max-Min RFU normalised activation; some inactives read as strong as hits;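 span of the calcium signal over five minutes; 0% = vehicle and 100% = native peptide agonist; compound fluorescence can raise it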
* hit, by the source's call; & = joins results of further samples.

SMILES	NPYLR7 ag	NPYLR7 ag max-min
COc1ccc(OCC(=O)NNC(=O)c2cccc(C)c2)cc1	-3.8	-6.3
Cc1ncsc1CNC(=O)N1CC=C(c2cccs2)CC1	5.2	2.7
O=C(c1cnn2ccccc12)N1CCCC(Cn2cc(C3CCCC3)nn2)C1 (centres undefined)	-6.7	-6.2
Cc1nnc2ccc(N3CCN(S(=O)(=O)/C=C/c4ccccc4)CC3)nn12	0.9	4.8
O=C(COc1ccccc1)N=Nc1c(O)[nH]c2c(Br)cc(Br)cc12	12.6	12.9
CN(C)S(=O)(=O)c1ccc(=O)n(CC(=O)N2N=C(c3ccco3)CC2c2ccco2)c1 (centres undefined)	0.3	5.1
CCCCN(Cc1cccn1Cc1ccc(Br)cc1)C(=O)CN(CCOC)C(=O)C1CCC1	-10.3	-9.3
O=C(O)CCc1ccccc1OS(=O)(=O)c1ccc(C(F)(F)F)cc1	1.1	1.6
COc1ccc(NC(=O)C2(C)CCN2C(=O)COc2ccc(Cl)cc2)cc1OC (centres undefined)	7.0	5.1
CCCCc1nc(C)c(C(=O)NCC2CCN(CCC)CC2)s1	7.3	3.4
O=C(c1ccccc1-n1cccn1)N1CCc2c([nH]c3ccccc23)C1c1ccccn1 (centres undefined)	-6.3	-14.0
Cc1nnc(NCC(C)(C)N2CCN(C)CC2)c(C#N)c1C	8.8	5.0
COc1ccc(C(=O)N2CCSCC2)cc1OC1CCN(C(C)=O)CC1	11.8	3.1
O=C1CCC(NS(=O)(=O)c2csc3ccc(Cl)cc23)CN1 (centres undefined)	7.0	4.6
Cc1ccccc1Cn1cc(C(=O)N2CCCN(C3CCCCC3)CC2)nn1	-6.8	-12.1

Filtered by structure, the compounds so far with a Cl atom (two)
SMILES	NPYLR7 ag	NPYLR7 ag max-min
COc1ccc(NC(=O)C2(C)CCN2C(=O)COc2ccc(Cl)cc2)cc1OC (centres undefined)	7.0	5.1
O=C1CCC(NS(=O)(=O)c2csc3ccc(Cl)cc23)CN1 (centres undefined)	7.0	4.6

New compounds follow
SMILES	NPYLR7 ag	NPYLR7 ag max-min
O=C(Nc1cnn(C23CC4CC(CC(C4)C2)C3)c1)c1cc(-c2ccc(F)cc2)no1	-10.5	-15.6
NC(=O)CC(NC(=O)CC1CCCO1)C1CCCCC1 (centres undefined)	0.1	0.3
O=C(NCCN1CCCC(O)C1)c1cc(COc2cccc(C(F)(F)F)c2)on1 (centres undefined)	-8.0&14.5	-7.5&5.0
COc1ccc(-c2nc(NCCNC(=O)c3cccc(F)c3)c3ccccc3n2)cc1	5.1	13.5
COCC(=O)N1CCCN(c2cc(Oc3ccc(F)c(Cl)c3)ncn2)CC1	-8.6	-7.9
Cc1cc2c(cnc3ncnn32)c(=O)n1-c1cc(Cl)cc(Cl)c1	-1.2	4.1
CCc1nc2ccc(C(=O)N3CCN(c4ccccc4)CC3)cn2c1N(C)C(=O)c1ccncc1	15.9	14.3
O=C1CCCc2occ(C(=O)N3CCNC(=O)C3c3cccc(F)c3)c21 (centres undefined)	-0.6	-0.5
O=C(Cn1cnc([N+](=O)[O-])n1)N/N=C\c1cccc(O)c1	-6.3	-11.1
CCc1c(C)nn(-c2ccc(C(=O)Nc3ccccc3C)cc2)c1C	3.7	5.6
COc1ccc(CC(=O)Nc2c(C)cc(C)cc2C)cc1	-5.4	-8.4
O=C(O)CCCSc1ncnc2sc3c(c12)CCCC3	-3.4	-5.3
CCn1cnnc1-c1ccccc1NC(=O)CC1C=CCC1 (centres undefined)	6.7	5.3
CC(NC(=O)C1CCN(Cc2ccc(Oc3ccccc3)cc2)CC1)c1cccc2ccccc12 (centres undefined)	7.9	-2.4
CC(=O)N1CCN(c2ccc(C(=O)N3CCCC4CCCCC43)cn2)CC1c1ccccc1 (centres undefined)	0.7	0.2
Cc1ccccc1C1c2ccsc2CCN1C(=O)CN(CC1CCCO1)C(=O)c1ccc(Cl)c([N+](=O)[O-])c1 (centres undefined)	-10.3	-12.0
O=C1CSC(c2cccc(F)c2)N1C1CCCCC1 (centres undefined)	-7.9	-11.0
CC1=NC2=C(C(=O)CC(c3ccccc3)C2)C(c2cccnc2)C1C(=O)OC1CCCC1 (centres undefined)	-13.9	-20.8
O=c1cc(CN2CCN(c3ccc(F)cc3)CC2)c2ccc3ccccc3c2o1	5.4	-0.9
COc1ccccc1NC(=O)Nc1nc(-c2cccnc2)nc2ccccc12	5.7	-37.6
CN1C(=O)COc2cc(NS(=O)(=O)NCc3ccccc3)ccc21	1.7	10.0
CC(CCn1cccn1)NC(=O)C(C)(C)c1ccccc1 (centres undefined)	14.9	11.3
CCSc1nnc(NC(=O)c2ccccc2Cl)s1	-6.8	-8.2
Cc1ccc(NC(=O)C2CC=CCC2C(=O)N2CCc3ccccc3C2)cc1 (centres undefined)	-13.6	-22.6
CCNc1nc(C(=O)N2CC3CCCC3C2)cs1 (centres undefined)	-2.5	-5.0
COc1ccc(CCN(C(=O)c2cc(C(F)(F)F)cc(C(F)(F)F)c2)C(C)c2nc3ccccc3c(=O)n2-c2cc(C)ccc2OC)cc1OC (centres undefined)	18.7	18.2
O=C(C(NCc1ccc2c(c1)OCO2)c1ccccc1)N1CCCC1 (centres undefined)	1.2	0.2
N#Cc1c(N)sc2c1CCCC2	-3.7&4.3	-3.9&4.2
CN1C=C(C(F)(F)F)C=CC1=C1C(=O)c2ccccc2C1=O	4.3	50.2
N#Cc1cc(C(=O)C(F)(F)F)c(-c2cccs2)[nH]c1=S	-1.5	-5.0
COc1ccccc1CNC(=O)C1(C)CCN1Cc1ccc(SC)cc1 (centres undefined)	2.8	1.7
CC(C)CC1(C(=O)Nc2ccc(S(C)(=O)=O)cc2)CCC1	-5.1&-3.6	-5.1&-6.0
COc1cccc(CN2CCCC(NC(=O)c3ccc4[nH]ccc4c3)C2)c1 (centres undefined)	4.2	2.2
Cc1ccc(C=CC(=O)OC(C)C(=O)C23CC4CC(CC(C4)C2)C3)o1 (centres undefined)	2.3	2.4
CCOc1ccccc1-c1cnc(NC(C)=O)cn1	2.4	1.6
COc1ccc(C(=O)CSc2nc(=O)n(Cc3ccncc3)c3c2CCC3)cc1	-1.5	-4.4
O=C1C2C(c3ccc(O)cc3)NN(Cc3ccccc3)C2C(=O)N1C1CCCCC1 (centres undefined)	-7.6	-13.2
CC1CCCCN1CC(=O)NCc1ccc(Cl)cc1 (centres undefined)	8.7	1.4
Cc1ccc(NC(=O)c2sc(=O)n(Cc3ccccc3)c2C)cc1	16.5	11.2
CN(C)c1nc(-c2ccc(OC(F)F)cc2OC(F)F)cs1	5.4	5.8
COc1ccc(S(=O)(=O)Nc2cc(S(C)(=O)=O)ccc2Cl)cc1	4.7	2.1
CC(C)(C)C(=O)CSc1nnc(CCn2ccc(=O)[nH]c2=O)o1	0.9	-0.9
CCCC(O)CN1CCN(Cc2nc(C(=O)N3CCN(C4CCCC4)CC3)co2)CC1 (centres undefined)	5.9	3.7
O=S1(=O)CCN2C(c3cc4ccccc4o3)=CSC2=N1	3.3	0.2
CS(=O)(=O)Oc1ccccc1CN(Cc1ccco1)C(=O)c1ccccc1Cl	-4.7	-3.4

Two of the compounds above, with values under each structure:
Second line of a record – NPYLR7 ag	NPYLR7 ag max-min
- COc1ccccc1CNC(=O)C1(C)CCN1Cc1ccc(SC)cc1 (centres undefined)
    2.8	1.7
- CC(C)CC1(C(=O)Nc2ccc(S(C)(=O)=O)cc2)CCC1
    -5.1&-3.6	-5.1&-6.0

Four compounds picked at random from the list so far, as already listed:
SMILES	NPYLR7 ag	NPYLR7 ag max-min
COc1ccccc1CNC(=O)C1(C)CCN1Cc1ccc(SC)cc1 (centres undefined)	2.8	1.7
CS(=O)(=O)Oc1ccccc1CN(Cc1ccco1)C(=O)c1ccccc1Cl	-4.7	-3.4
Cc1ccc(NC(=O)c2sc(=O)n(Cc3ccccc3)c2C)cc1	16.5	11.2
CC(C)(C)C(=O)CSc1nnc(CCn2ccc(=O)[nH]c2=O)o1	0.9	-0.9

Next structures
SMILES	NPYLR7 ag	NPYLR7 ag max-min
Cc1nc2cc(-c3ccc(I)cc3)nn2c(C)c1Cl	3.9	4.6
CCOc1ccc(C(=O)N2CCN(c3ccccc3)CC2)cc1OCC	0.5	-2.8
Cc1cc(C)c(C#N)c(SCC(=O)N(C)CCC#N)n1	21.1	8.9
Cc1ccc(S(=O)(=O)NC(=O)C(NC(=O)c2ccco2)C(C)C)c(C)c1 (centres undefined)	5.0	2.6
Cc1ccc2cccc(Oc3nc(C)nc4sc5c(c34)CCC5)c2n1	-0.7	-4.6
CCn1nnnc1SCC(=O)N(C)Cc1ccc2c(c1)OCCO2	6.3	0.6
CC(NC(=O)CCSCc1ccc(F)cc1)c1cn2ccsc2n1 (centres undefined)	7.4	5.1
O=C1CCCN1c1ccc(Cn2nc3c(-c4nc(-c5ccccc5)no4)cccn3c2=O)cc1	17.0	6.5
CC(=O)NC(=Nc1nc(C)c2cc(C)c(C)cc2n1)NC(C)=O	-7.8	-13.9
CCc1ccc(C2C(C#N)=C(C)NC3=C2C(=O)CC(c2ccc(Cl)cc2)C3)cc1 (centres undefined)	-2.3	-4.1
CCN(CC)c1onc(-c2ccccc2)c1CN(C(=O)COC)C1CC1	-6.9	-2.7
CS(=O)(=O)c1ccccc1F	4.2	6.3
Cc1ccccc1CCCNC(C)(C)C(=O)N(C)C	9.0	4.7
Fc1ccc(CN2CCCC3(CCN(Cc4nc(-c5ccccc5)no4)C3)C2)cc1 (centres undefined)	0.2	-7.3
Cc1ccccc1C(=O)N(CCc1ccccc1)CC(=O)Nc1cc(C(C)(C)C)nn1-c1ccccc1C	-0.2	6.0

Filtered by structure: those above containing a nitro group on carbon
SMILES	NPYLR7 ag	NPYLR7 ag max-min
O=C(Cn1cnc([N+](=O)[O-])n1)N/N=C\c1cccc(O)c1	-6.3	-11.1
Cc1ccccc1C1c2ccsc2CCN1C(=O)CN(CC1CCCO1)C(=O)c1ccc(Cl)c([N+](=O)[O-])c1 (centres undefined)	-10.3	-12.0

(list continues)
SMILES	NPYLR7 ag	NPYLR7 ag max-min
CCOc1nn(CC)cc1C(=O)N1CCOCC1	4.3	8.3
CN(C)c1ccc(C=NN=C2NC(=O)C(Cc3ccccc3[N+](=O)[O-])S2)cc1 (centres undefined)	-1.3	-6.4
COc1ccc(-n2ccnc(SCC(=O)NC3CCCCC3)c2=O)cc1Cl	3.2	1.6
CCOc1ccc(N(CC(=O)NCc2ccncc2)S(=O)(=O)c2ccc(SC)cc2)cc1	5.4	4.7
Cc1cc(C(=O)NCc2cccnc2N(C)C2CCCCC2)nn1C	10.1	-2.2
O=C(COCc1ccccc1)N1CCN(C(C(=O)N2CCc3ccccc3C2)C2CCCC2)CC1 (centres undefined)	-0.7	2.8
Cc1cc(Cl)ccc1OCC(=O)NCC(=O)N=Nc1c(O)[nH]c2ccccc12	15.3	13.4
CCC(C)C(NC(=O)c1ccc(OC)cc1)C(=O)Nc1nnc(-c2cccc(Cl)c2)s1 (centres undefined)	-0.4	2.4
Cc1[nH]n(-c2ccc(F)cc2)c(=O)c1C1=C([n+]2ccccc2)C(=O)N(Cc2ccc(F)cc2)C1=O	-2.8	3.7
O=C(c1ccc(Br)cc1)N1CCc2c([nH]c3ccccc23)C1c1ccc([N+](=O)[O-])c(Cl)c1 (centres undefined)	10.7	-1.0
COc1c2ccoc2nc2c(OC)c(OC[C@@H](O)C(C)(C)O)ccc12	3.4	-3.4
CCc1nc(SCC(=O)N2CCCN(C(=O)C3CCCO3)CC2)n[nH]1 (centres undefined)	2.6	1.4
Cc1cc(-c2csc(NC(=O)c3c(O)cc(F)cc3F)n2)c(C)o1	-2.7	350.1
Cc1ccc(N2CCC(NC(=O)N3CCSC(C)(C)C3)CC2)nc1	3.0	-0.6
N#Cc1cc2c(cc1NS(=O)(=O)c1cccc(S(=O)(=O)c3ccccc3)c1)OCO2	-1.1	-1.9
COc1cccc2c1OC(c1ccc3c(c1)OCO3)C([N+](=O)[O-])=C2 (centres undefined)	5.5	4.5
CC(C)c1ccc(NC(=O)Nc2ccc(N3CCCC3)c(C(=O)NCCc3ccccc3)c2)cc1	1.9	4.2
Cc1oc(-c2ccoc2)nc1CN1CCCC1c1nccs1 (centres undefined)	-7.5	-15.0
O=C(Oc1ccccc1)OC1CCS(=O)(=O)C1 (centres undefined)	0.7	-0.9
CNC(=O)CC(C)N(C)Cc1ccc(C(=O)Nc2ccccc2)cc1 (centres undefined)	5.7	5.4
COc1ccc(-n2c(-c3ccccc3)cc(C(=O)N3CCN(C(=O)c4cccc(F)c4)CC3)c2C)cc1OC	0.9	1.1
Cc1ccc(N2C(=O)CSC2c2ccc(NS(=O)(=O)c3cccc4cccnc34)cc2)cc1C (centres undefined)	8.3	8.3
Cn1c(SCC(=O)Nc2ccccc2N2CCOCC2)nnc1-c1ccccc1F	4.9	0.7
CN(Cc1ccccc1)Cn1nc2n(C)c(=O)c3ccccc3n2c1=S	15.8	5.4
CN(C)c1ccc(NC(=O)c2ccco2)cc1CN(C(=O)c1cccc(F)c1)C1CCCCC1	-3.9	3.1
CC(=O)NCCNc1nc(CN2CCC(C)CC2)nc2sc3c(c12)CCC3	2.1	11.7
Cn1c(N)c(Br)c(=O)[nH]c1=O	5.3	11.0
COc1ccc(CCNC(=O)c2ccccc2N2CCC(NC(=O)c3ccc(Cl)cc3)CC2)cc1OC	1.9	4.3
CCc1ccc(C(NS(=O)(=O)c2c(C)noc2C)c2cccs2)cc1 (centres undefined)	5.9	1.2
C[C@@H]1CN(C(=O)c2nc3sccn3c2-c2nc3ccc(F)cc3[nH]2)C[C@H](C)O1	18.1	11.0
O=S(=O)(c1ccc(Br)cc1)N1CCN(Cc2nc(-c3ccccc3)no2)CC1	6.0	5.4
O=C(CSc1nc2ccccc2s1)Nc1cc(C(=O)O)cc(C(=O)O)c1	-4.0	-9.1
COc1cc(-c2ccc(C)s2)cc2c1OCCN(CCc1cn[nH]c1)C2	20.7	7.7
C=C1CCC(=O)C(C)CCC2C1CC2(C)C (centres undefined)	-7.9	-11.6

Not all compounds are listed (hit frequency here may not be typical).
